From PubChem BioAssay
D2 ag = activates the human D2 dopamine receptor. DiscoveRx PathHunter D2 beta-arrestin, luminescence, 90 min; 100% = 57 uM dopamine signal. hit rate 0.084% among 360,000. activation, % (no concentration beside the values); in the data active = activation above about 40%; inconclusive = about 15% to 40%; inactive = below about 15%; also: compound concentration not given in the record; the text of the record calls up to 30% inactive
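DiscoveRx PathHunter D2 beta-arrestin cells (2,100/well) attached overnight, then compound-stimulated 90 min at 37 C in HBSS/10 mM HEPES/0.1% Tween-20 buffer; beta-galactosidase complementation read by luminescence after 1 h at ambient temperature. Dopamine 57 uM final (EC100) as control.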
D2 potentiator = human D2 receptor positive allosteric modulation; P14416; DiscoveRx D2 beta-arrestin cells, luminescence, 90 min; 100% = 57 uM dopamine signal; potentiation, % (concentration not given with the values); hit rate 0.23% among 360,000; AID 624464; active = potentiation of 50% or more; inconclusive = 30% to 50%; inactive = 30% or less;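 also: compound concentration not given in the record; tested on top of an EC20 dose of dopamine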
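PathHunter beta-arrestin assay in DiscoveRx D2 cells. Compounds were added with an EC20 of dopamine (50 nM final) for 90 min at 37 deg C. Luminescence was read 1 h after detection reagent, with 57 uM dopamine as the EC100 control.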
gsp ag = gsp mutant agonism; gsp mutant cells, cAMP HTRF, 30 min; control for the full effect not named in the record; Potency, µM (titrated, usually from 76.9 µM), for inactives: top-dose activation (cAMP increase), most hits filed as activators; hit rate 0.13% among 340,000; active = well fitted activation curve with a large enough effect; inconclusive = small, poorly fitted or top-dose-only effect, or another doubt; inactive = no such curve, though single readings can be large or run the other way; cell line not stated here;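 also: phosphodiesterase inhibitor Ro 20-1724 added with compounds to block cAMP breakdown; potency is read from the fitted curve at half-maximal effect; nearly all actives have a fitted effect of over 60% in size; about a fifth of the inactives were tested at one dose only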
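Cells stably selected in G418 were plated at 2000/well, grown 16-24 hr, then given compounds in DMSO with the PDE inhibitor […] (300 uM solution added) for 30 min at 37C; cAMP was read by HTRF.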
CtBP-E1A blk = blocks the CtBP interaction with E1A. hit rate 0.49% among 340,000. AID 651724. activity change, % (test concentration not listed). AlphaScreen GST-E1A/His-CtBP binding, 1536-well; stronger effect = lower value; control for the full effect not named in the record; in the data active means activity change below about -65%; inconclusive means about -30% to -65%; inactive means above about -30%; also: % is scaled to controls: 0 for no effect and ±100 for the full control effect; compound concentration not given in the record
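AlphaScreen with 125 nM GST-E1A and 125 nM His-CtBP (5X stocks) in Tris pH 8.0, 300 mM NaCl, BSA, Tween 20, TCEP. Compounds preincubated 2 h at 37 deg C, then glutathione donor/nickel acceptor beads added for 1 h at 37 deg C in dark.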
Six1-Eya2 blk = Six1/Eya2 interaction inhibition; Q15475+O00167; AlphaScreen GST-Six1/His-Eya2 binding, biochemical; stronger effect = lower value; control for the full effect not named in the record; activity change, % (test concentration not listed); hit rate 0.56% among 360,000; AID 651725; in the data active = activity change below about -65%; inconclusive = about -30% to -65%; inactive = above about -30%; also: % is scaled to controls: 0 for no effect and ±100 for the full control effect; compound concentration not given in the record
Target sequence (O00167 whole entry, looked up): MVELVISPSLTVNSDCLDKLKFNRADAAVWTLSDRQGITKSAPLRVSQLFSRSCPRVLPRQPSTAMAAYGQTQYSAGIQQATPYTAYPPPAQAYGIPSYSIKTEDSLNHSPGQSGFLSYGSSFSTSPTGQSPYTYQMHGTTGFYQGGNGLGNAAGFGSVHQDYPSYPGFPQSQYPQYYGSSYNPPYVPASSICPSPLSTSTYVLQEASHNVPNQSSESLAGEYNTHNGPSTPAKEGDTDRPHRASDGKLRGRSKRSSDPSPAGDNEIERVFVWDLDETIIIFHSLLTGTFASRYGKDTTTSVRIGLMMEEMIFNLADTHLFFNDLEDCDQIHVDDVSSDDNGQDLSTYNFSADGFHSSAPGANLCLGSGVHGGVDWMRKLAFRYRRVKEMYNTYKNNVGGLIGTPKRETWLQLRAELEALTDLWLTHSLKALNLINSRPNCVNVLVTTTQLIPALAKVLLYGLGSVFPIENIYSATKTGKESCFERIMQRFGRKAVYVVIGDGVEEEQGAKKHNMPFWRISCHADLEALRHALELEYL
Target sequence (Q15475 whole entry, looked up): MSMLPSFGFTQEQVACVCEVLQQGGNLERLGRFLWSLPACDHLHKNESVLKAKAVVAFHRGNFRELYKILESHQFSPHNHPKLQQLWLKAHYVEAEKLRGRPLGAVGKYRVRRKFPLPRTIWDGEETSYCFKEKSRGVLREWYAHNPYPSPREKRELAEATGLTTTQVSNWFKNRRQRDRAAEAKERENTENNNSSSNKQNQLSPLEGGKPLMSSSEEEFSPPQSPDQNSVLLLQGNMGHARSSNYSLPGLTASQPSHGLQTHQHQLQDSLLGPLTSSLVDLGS
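AlphaScreen with GST-Six1 and His-Eya2 (5X mix: 250 nM and 500 nM), glutathione donor and nickel acceptor beads; buffer 50 mM Tris pH 8.0, 300 mM NaCl, 1 mM TCEP; 1 h at 37 C in the dark.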
gsp antagonist = gsp mutant antagonism | AID 624288 | hit rate 0.4% among 340,000 | gsp-mutant cells, cAMP HTRF, 30 min; control for the full effect not named in the record | Potency, µM (titrated, usually from 76.9 µM), inactives show top-dose activity change, negative = inhibition, actives largely listed as inhibitors; active = falling curve of any shape with a large fitted effect; inconclusive = falling curve, mostly with a smaller effect; inactive = flat or rising curve; cell line not stated here;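 also: intracellular cAMP measured with PDE inhibitor Ro 20-1724 present during compound exposure; potency is read from the fitted curve at half-maximal effect; % is scaled to controls: 0 for no effect and ±100 for the full control effect; nearly all actives have a fitted effect of over 65% in size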
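Measurement of cellular cAMP by homogeneous time-resolved fluorescence following a 30 min compound exposure at 37C. The PDE inhibitor […] was present throughout; the assay buffer was DPBS with 0.05% BSA and 0.005% Tween 20.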
Starred values were filed as active, the others as inactive; [ ] = dose if it differs, or a comment.

`COc1cc(-c2nnc(NC(=O)CCS(=O)(=O)c3ccc(F)cc3)o2)cc(OC)c1OC` gave D2 ag -2.1, D2 potentiator 0, gsp ag -43%[inhibitor], CtBP-E1A blk -7, Six1-Eya2 blk 4 and gsp antagonist inconclusive.
For COc1ccc(OC)c(C(=O)NC2CC(C)(C)Cc3c2cnn3-c2ccccc2)c1 (stereo not drawn) the results were D2 ag 4.0, D2 potentiator 4, gsp ag inconclusive, CtBP-E1A blk -24, Six1-Eya2 blk -6 and gsp antagonist inconclusive.
`O=C1Cc2ccccc2Sc2c(OCCN3CCCCC3)cccc21` gave D2 ag -8.7, D2 potentiator -32, gsp ag 4%, CtBP-E1A blk -5, Six1-Eya2 blk -18 and gsp antagonist 9%.
For Cc1ncoc1C(=O)Nc1ccc(Oc2ccccc2)cc1 the results were D2 ag 1.8, D2 potentiator -3, gsp ag 2%, CtBP-E1A blk -3, Six1-Eya2 blk 1 and gsp antagonist inconclusive.
COc1ccc(C(=O)NC2CCCCCC2)cc1S(=O)(=O)N1CCCC1 was read as D2 ag -4.1, D2 potentiator -6, gsp ag 4%[15.4 µM], CtBP-E1A blk 0, Six1-Eya2 blk 8 and gsp antagonist 11µM*.
Cc1cc(OCC(=O)NCCN2CCOCC2)ccc1Br was read as D2 ag -4.6, D2 potentiator -4, gsp ag -31%[inhibitor], CtBP-E1A blk 0, Six1-Eya2 blk 2 and gsp antagonist 6%.
Screening O=C(CNC(=O)c1ccc(N2C(=O)c3ccccc3C2=O)cc1)OCC(=O)c1ccccc1 returned D2 ag -5.7, D2 potentiator 1, gsp ag 21%, CtBP-E1A blk 11, Six1-Eya2 blk 0 and gsp antagonist -12%.
Screening O=C1CC(SC(=Nc2ccccc2)Nc2ccccc2)C(=O)N1c1cccc2ccccc12 (stereo not drawn) returned D2 ag -0.6, D2 potentiator -17, gsp ag -2%, CtBP-E1A blk -1, Six1-Eya2 blk -4 and gsp antagonist -14%.
`Cn1c(CCC(=O)Nc2ccc(N3CCOCC3)cc2)nc(=O)c2ccccc21` gave D2 ag 7.6, D2 potentiator 1, gsp ag 29%, CtBP-E1A blk 0, Six1-Eya2 blk -13 and gsp antagonist -14%.
O=C(C[C@@H]1C[C@@H]2c3cc(NS(=O)(=O)c4ccc(F)cc4)ccc3O[C@@H]2[C@H](CO)O1)NCc1ccc(Oc2ccccc2)cc1 was read as D2 ag 13, D2 potentiator 3, CtBP-E1A blk 25 and Six1-Eya2 blk 11.
CCCN1C(=O)c2ccc(C(=O)Nc3cc(C)on3)cc2C1=O was read as D2 ag -1.2, D2 potentiator -4, gsp ag -3%, CtBP-E1A blk -2, Six1-Eya2 blk -1 and gsp antagonist 12%.
`COc1ccc(/C=N/N=C/c2c[nH]c(=O)c(C#N)c2Nc2ccccc2)cc1` gave D2 ag -3.8, D2 potentiator -10, gsp ag inconclusive, CtBP-E1A blk -9, Six1-Eya2 blk -6 and gsp antagonist -6%.
For O=C(Nc1ccc(O)c2c(=O)cc(-c3cccc(Cl)c3)oc12)c1ccccc1Cl the results were D2 ag -1.1, D2 potentiator -1, gsp ag -29%, Six1-Eya2 blk -14 and gsp antagonist -16%.
For Cc1ccc(N2C(=O)N3[C@H](c4cccc(C)c4)[C@@H]4C(=O)N(Cc5ccccc5)C(=O)[C@@H]4[C@]3(C)C2=O)cc1 the results were D2 ag -3.1, D2 potentiator -2, gsp ag -22%, CtBP-E1A blk 1, Six1-Eya2 blk 2 and gsp antagonist -2%.
For CCCOc1ccc(-c2c(C(=O)N/N=C(\C)c3cccs3)nnn2-c2nonc2N)cc1 the results were D2 ag -5.5, D2 potentiator -3, gsp ag inconclusive, CtBP-E1A blk -3, Six1-Eya2 blk 4 and gsp antagonist -4%.
For CCOc1cccc(C(=O)Nc2ccc3oc(Cc4ccc(Cl)cc4)nc3c2)c1 the results were D2 ag 1.3, D2 potentiator 4, gsp ag 2%, CtBP-E1A blk 4, Six1-Eya2 blk 1 and gsp antagonist -2%.
Screening COc1cc(OC)c(S(=O)(=O)NCc2ccco2)cc1S(=O)(=O)NCc1ccco1 returned D2 ag 0.3, D2 potentiator 3, gsp ag inconclusive, CtBP-E1A blk 7, Six1-Eya2 blk 2 and gsp antagonist 3%.
Screening NC(=O)CSc1nccn1Cc1ccccc1 returned D2 ag -1.3, D2 potentiator -2, gsp ag -14%[15.4 µM], CtBP-E1A blk 12, Six1-Eya2 blk 4 and gsp antagonist 12%.
For COc1ccc(OC)c(CN2CCN(C(=O)CCC(=O)c3cccs3)CC2)c1 the results were D2 ag 1.2, D2 potentiator -30, gsp ag 5%, CtBP-E1A blk -1, Six1-Eya2 blk -1 and gsp antagonist -4%.
Screening CC(=O)c1cnc2cc(-c3cccc(Br)c3)nn2c1C returned D2 ag 3.5, D2 potentiator -1, gsp ag 17%, CtBP-E1A blk 6, Six1-Eya2 blk 3 and gsp antagonist -9%.
`Cc1c(OCC(=O)NCc2ccncc2)ccc2c3c(c(=O)oc12)CCC3` gave D2 ag 2.5, D2 potentiator 12, gsp ag 2%, CtBP-E1A blk 3, Six1-Eya2 blk 10 and gsp antagonist -3%.
`CCN1CCN(C(=O)C(Cc2ccccc2)NC(=O)c2ccc(Cl)c(S(=O)(=O)N(C)C)c2)CC1` (stereo not drawn) gave D2 ag -4.6, D2 potentiator -23, gsp ag 13%, CtBP-E1A blk -3, Six1-Eya2 blk 3 and gsp antagonist -5%.
For CCOC(=O)c1ccc(N/C=C/C(=O)C(C)(C)C)cc1 the results were D2 ag 2.6, D2 potentiator 4, gsp ag -6%, CtBP-E1A blk 0, Six1-Eya2 blk 6 and gsp antagonist -17%.
COc1ccc(OC)c(C(C)NC(=O)C(C)Cc2ccccc2)c1 (stereo not drawn) was read as D2 ag 3.5, D2 potentiator -7, gsp ag -40%[inhibitor], CtBP-E1A blk -6, Six1-Eya2 blk 7 and gsp antagonist 7%.
Screening c1ccc(C2CC(c3ccccc3)n3c(nc4ccccc43)N2)cc1 (stereo not drawn) returned D2 ag -2.7, D2 potentiator -4, gsp ag 4%[15.4 µM], CtBP-E1A blk 9, Six1-Eya2 blk 5 and gsp antagonist 3%.
O=C(Nc1ccc2nc3n(c(=O)c2c1)CCCCC3)c1c(F)ccc([N+](=O)[O-])c1F was read as D2 ag 5.8, D2 potentiator -4, gsp ag -15%[15.4 µM], CtBP-E1A blk -12, Six1-Eya2 blk -12 and gsp antagonist 19%.
`Cc1cc(C)c(C)c(OCCCCN(C)Cc2ccccc2)c1` gave D2 ag 2.5, D2 potentiator -4, gsp ag -17%, Six1-Eya2 blk -11 and gsp antagonist 2%.
O=C(NCC1CCCO1)c1ccc2c(c1)N(Cc1ccc(F)cc1Cl)C(=O)CS2 (stereo not drawn) was read as D2 ag -0.1, D2 potentiator -6, gsp ag -11%, CtBP-E1A blk 3, Six1-Eya2 blk -1 and gsp antagonist -21%.
`CCCNC(=O)c1ccc(N2CCC3(CC2)CC(c2ccccc2)=NO3)c(NC(=O)c2cccc(OC)c2)c1` gave D2 ag -4.9, D2 potentiator -4, gsp ag 0%, CtBP-E1A blk -26, Six1-Eya2 blk 1 and gsp antagonist -6%.
For N#CCCN(C(=O)CCl)c1cccc(Cl)c1 the results were D2 ag -0.3, D2 potentiator -8, gsp ag -32%, CtBP-E1A blk 8, Six1-Eya2 blk 4 and gsp antagonist 0%.

Some of these compounds in order of SMILES length, lowest first.
`Cc1cc(C)c(C)c(OCCCCN(C)Cc2ccccc2)c1` gave D2 ag 2.5, D2 potentiator -4, gsp ag -17%, Six1-Eya2 blk -11 and gsp antagonist 2%.
For CCOC(=O)c1ccc(N/C=C/C(=O)C(C)(C)C)cc1 the results were D2 ag 2.6, D2 potentiator 4, gsp ag -6%, CtBP-E1A blk 0, Six1-Eya2 blk 6 and gsp antagonist -17%.
O=C(Nc1ccc2nc3n(c(=O)c2c1)CCCCC3)c1c(F)ccc([N+](=O)[O-])c1F was read as D2 ag 5.8, D2 potentiator -4, gsp ag -15%[15.4 µM], CtBP-E1A blk -12, Six1-Eya2 blk -12 and gsp antagonist 19%.

(next part)
`COc1ccc(C(=O)Nc2nc(C)cs2)cc1S(=O)(=O)N1CCOCC1` gave D2 ag -1.3, D2 potentiator -5, gsp ag -41%[inhibitor], CtBP-E1A blk -6 and Six1-Eya2 blk -7.
Screening CCc1ccc(NC(=O)CCC(=O)Nc2nnc(C(C)C)s2)cc1 returned D2 ag 0.2, D2 potentiator -3, gsp ag -22%, Six1-Eya2 blk 15 and gsp antagonist 1%.
O=Nc1c(O)n(Cc2ccc(Cl)c(Cl)c2)c2ccccc12 was read as D2 ag -5.3, D2 potentiator 5, gsp ag 3%, CtBP-E1A blk -7, Six1-Eya2 blk -12 and gsp antagonist inconclusive.
For CCOC(=O)/C(C#N)=C/Nc1ccccc1OC(F)(F)F the results were D2 ag -13, D2 potentiator -3, gsp ag -3%[15.4 µM], CtBP-E1A blk -4, Six1-Eya2 blk 3 and gsp antagonist 7%.
For Cc1ccc(CSC(Nc2ccc(F)cc2)=C(C#N)C#N)cc1 the results were D2 ag 2.1, D2 potentiator -9, gsp ag -2%, CtBP-E1A blk 3, Six1-Eya2 blk 2 and gsp antagonist inconclusive.
Screening O=S(c1ccccc1)C(c1ccccc1)c1ccccc1 (stereo not drawn) returned D2 ag 1.0, D2 potentiator 2, gsp ag 18%[15.4 µM], CtBP-E1A blk 2, Six1-Eya2 blk 2 and gsp antagonist 0%.
`CCOC(=O)c1cc(-c2ccccc2)sc1NC(=O)CN1C(=O)c2ccccc2C1=O` gave D2 ag 1.0, D2 potentiator -12, gsp ag -4%, CtBP-E1A blk 10, Six1-Eya2 blk -1 and gsp antagonist -6%.
For CCOc1ccc(C(=O)NC(=S)Nc2cccnc2)cc1[N+](=O)[O-] the results were D2 ag 7.9, D2 potentiator -7, gsp ag -27%[15.4 µM], CtBP-E1A blk 1, Six1-Eya2 blk 5 and gsp antagonist 14%.
For Cc1ccc(NNC(=O)c2c(F)cccc2Cl)cc1Cl the results were D2 ag 0.5, D2 potentiator -4, gsp ag 5%[15.4 µM], CtBP-E1A blk 2, Six1-Eya2 blk 9 and gsp antagonist 0%.
For CCc1ccccc1NC(=O)CN(C)C(=O)COC(=O)c1c(Cl)cccc1Cl the results were D2 ag 1.4, D2 potentiator 6, gsp ag 13%, CtBP-E1A blk 0, Six1-Eya2 blk 9 and gsp antagonist 5%.
`O=C(/C=C/c1ccccc1)NNC(=O)c1cccs1` gave D2 ag -1.5, D2 potentiator -8, gsp ag -3%[15.4 µM], CtBP-E1A blk 10, Six1-Eya2 blk -12 and gsp antagonist 15%.
C/C(=N\Nc1cc(Cl)nc(C)n1)c1ccc(C)cc1 was read as D2 ag -3.5, D2 potentiator -5, gsp ag -11%, CtBP-E1A blk -5, Six1-Eya2 blk -1 and gsp antagonist 2%.
Screening COc1cc(/C=N/NC(=S)NCc2ccccc2)ccc1OCC#N returned D2 ag 1.1, D2 potentiator 1, gsp ag 11%, CtBP-E1A blk -5, Six1-Eya2 blk -5 and gsp antagonist -2%.
